Bioassay records (PubChem)
Measles inh = inhibitors of measles virus growth in infected cells; infected Vero cells, GFP fluorescence, 64 h; active compounds read low; z-score (test concentration not listed); actives 0.1% (n = 33,000); AID 745;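 active = z-score under -3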;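 also: score is relative to mean and SD of the compound wells of a plate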
The depositor's hits bear a star. These rows are one share of the data (hit frequency here may not be typical).

SMILES	Measles inh
Cc1cc(C)[nH]c(=O)c1	0.6
Cc1ccc(F)cc1NC(=O)c1cc2nc(-c3cccs3)cc(C(F)(F)Cl)n2n1	-2.2
CN(C)c1ccc(-c2c(C#N)c(N)nc3c2CCCCCC3)cc1	-0.68
Cc1cccc(-c2noc(COc3ccccc3)n2)c1	-1.1
CCN(CC)CCCn1c(=S)[nH]c2cc(Cl)ccc2c1=O	1
CC(=O)c1c(-c2ccccc2)nc2nonc2c1N	-0.88
N#Cc1c(C(F)(F)F)cc(-c2cccs2)nc1SCC1CCCCC1=O (centres undefined)	-0.39
CC1CCN(C(=O)CC#N)CC1	-0.06
CCOc1ccc(S(=O)(=O)N(CC(=O)NC(C)C)c2ccc(C)cc2)cc1	0.57
CN(C)C(=O)N1CCC(C(=O)NCc2ccccc2Cl)CC1	0.47
COc1cc(C2Oc3ccccc3C3CC(c4ccccc4)=NN32)ccc1OC(C)=O (centres undefined)	-1.1
O=C(Nc1cccc(C(F)(F)F)c1)c1ccc(F)c(S(=O)(=O)N2CCc3ccccc32)c1	-0.88
COC(=O)C1(S(=O)(=O)c2ccc(C)cc2)CCOCC1	-0.31
O=C(C1CCC(CNS(=O)(=O)c2cccs2)CC1)N1CCN(c2ccc(Cl)cc2)CC1 (centres undefined)	1.2
CCn1c(C(O)c2ccc(OCc3ccccc3)c(OC)c2)nc2ccccc21 (centres undefined)	-0.98
O=C(CSCCc1ccccn1)Nc1ccc(Br)cc1	-0.26
Cc1cc(=O)n2[nH]c(C)cc2n1	1.4
CCCOc1cccc(C(=O)Nc2ccc3nn(-c4cccc(Cl)c4)nc3c2)c1	0.51
O=C1CCCc2oc3ccc(NS(=O)(=O)c4ccc(Br)cc4)cc3c21	-0.07
C=CCc1c(C)nc(SCCC)[nH]c1=O	-1.9
O=C(CSc1nc2c(cnn2-c2ccccc2)c(=O)[nH]1)Nc1cc(C(F)(F)F)ccc1Cl	-1.7
CCOC(=O)C1=C(C(=O)OCC)SC(=C2C(=S)C(C)(C)Nc3cc(C)ccc32)S1	-1.5
S=C1SCN(Cc2ccccn2)CN1Cc1ccco1	1.4
S=c1nc2ccccc2c2nc(Cc3ccccc3)[nH]n12	-0.13
O=C(NC1CC1)c1ccc(Cn2c(SCC(=O)N3CCCc4ccccc43)nc3ccccc3c2=O)cc1	0.97
O=C(CCCn1c(=S)[nH]c2cc3c(cc2c1=O)OCO3)N1CCN(Cc2ccc3c(c2)OCO3)CC1	1.6
O=C(Cn1c2ccccc2n2nc(-c3ccco3)nc12)c1ccc(Br)cc1	-0.17
c1ccc(-c2nc3ccccc3nc2-c2cccs2)cc1	-1.8
COc1ccc(C2C(C(=O)N3CCC(C)CC3)c3ccccc3C(=O)N2Cc2ccc(F)cc2)cc1 (centres undefined)	-0.53
CCOC(=O)c1ccc(NC(=O)CSc2nnnn2-c2ccccc2F)cc1	0.52
COc1cccc(OC)c1C(=O)N=c1sc2cc(S(C)(=O)=O)ccc2n1C	0.21
COc1cc(C2NC(=O)NC(C)=C2C(=O)OCC(C)C)cc(Cl)c1O (centres undefined)	1.3
CCCOc1ccc(N2C(=O)CC(N(CCC34CC5CC(CC(C5)C3)C4)C(C)=O)C2=O)cc1 (centres undefined)	-0.05
COc1ccc(OC)c(NC(=O)c2ccc(-c3cccc(Cl)c3C)o2)c1	-0.51
COC(=O)c1c(NC(=O)Nc2cccc(OC)c2)sc2c1CCCC2	-1.2
CCc1ccc(CN2CCC(N3CCCCCC3)CC2)cc1	-0.99
N#Cc1c(SCc2ccccc2)nc(N2CCOCC2)c2c1CCCC2	0.38
O=C(Nc1cc(Cl)ccc1OC(=O)c1cccs1)c1cccs1	-0.47
O=C1NC(=S)NC(=O)C1C(O)c1cc(Br)ccc1OCc1ccccc1F (centres undefined)	-0.35
CC1C=CCC2C(=O)N(c3ccc(Oc4ccc(Cl)cc4)cc3)C(=O)C12 (centres undefined)	-1.2
CCOC(=O)c1ccccc1NC(=O)c1nn(-c2ccc(OC)cc2)c(=O)c2ccccc12	-0.7
O=C(Nc1nccs1)c1ccc([N+](=O)[O-])cc1Cl	0.35
CCCCCn1c(=S)[nH]c2ccccc2c1=O	0.43
CC1CC(C)CN(C(=O)CNC(=O)Cn2ccc3ccccc3c2=O)C1 (centres undefined)	0.46
O=C(c1ccco1)N1CCN(S(=O)(=O)c2ccc3[nH]c(=O)sc3c2)CC1	-1.1
CC(=O)c1ccc(NC(=O)c2cccc(N3C(=O)c4ccccc4C3=O)c2)cc1	0.14
Cn1nc(CC(=O)NCc2ccc(F)cc2)c2ccccc2c1=O	1.6
CCOC(=O)c1cccc(NC(=O)CN2C(=O)C3C4C=CC(C4)C3C2=O)c1 (centres undefined)	0.2
Cc1cc2cc(CNC(=O)NC3CCCCC3)ccc2[nH]1	-0.23
O=C(Nc1c(C(=O)N2CCC(Cc3ccccc3)CC2)cnn1-c1ccccc1)c1ccc(Br)cc1	0.43
COc1ccc(OC)c(NC(=O)Cn2cnc3sc(C)c(C)c3c2=O)c1	-2
Cc1cccc(NC(=O)Cn2c(=O)oc3ccccc32)n1	1.4
O=C1c2ccccc2C(=O)N1CCc1cn2c(n1)SCC2	-0.22
COC(=O)c1ccc(C=Nc2ccc(-c3nc4cc(C)c(C)cc4o3)cc2)cc1	0.58
CC1(C)CC(=O)C(C(c2cccc([N+](=O)[O-])c2)C2C(=O)CC(C)(C)CC2=O)C(=O)C1	-0.56
Cc1cccc(NC(=O)c2c(NC(=O)c3cccnc3)sc3c2CCC3)c1	0.49
FC(F)Oc1cc(Cl)ccc1C1=CC(c2ccc(Cl)cc2)n2ncnc2N1 (centres undefined)	-0.19
O=C(C1CC1)N1CCc2cc(Br)cc(S(=O)(=O)NC3CCN(Cc4ccccc4)CC3)c21	-0.56
CC(=O)c1c(C)n(-c2ccccc2Br)c2ccc(O)cc12	-0.82
O=[N+]([O-])c1ccc(Cl)c(C2Nc3ccccc3S(=O)(=O)N2Cc2ccccc2)c1 (centres undefined)	1.9

Continued.
SMILES	Measles inh
O=C(Nc1c(C(=O)Nc2ccc(F)cc2)cnn1-c1ccccc1)c1ccccc1F	-0.69
COc1cccc(C=Cc2nc3ccccc3c(=O)n2-c2ccc(NC(C)=O)cc2)c1OC	0.2
COC(=O)c1ccccc1NC(=O)c1ccccc1	-0.54
O=C1C=C(O)CC(c2cccs2)C1 (centres undefined)	1.7
C(#CC1C=Cc2ccccc2O1)c1ccccc1 (centres undefined)	0.29
COc1cc2c(c(OC)c1OC)C(c1ccccc1[N+](=O)[O-])CC(=O)N2 (centres undefined)	-0.53
CCOC(=O)C1=C(C)NC2=C(C(=O)CC(c3cccs3)C2)C1c1ccc(O)c(OCC)c1 (centres undefined)	-0.64
O=C(Nc1ccc2oc(-c3cccc(Cl)c3)nc2c1)c1ccc2c(c1)OCCO2	-0.94
NS(=O)(=O)c1ccc(NC(=O)CN2CCN(Cc3ccccc3)CC2)cc1	0.01
Cc1ccc2nsnc2c1S(=O)(=O)N1CCN(C23CC4CC(CC(C4)C2)C3)CC1	-1.3
Cc1ccccc1C(=O)OCCN1CCCCC1	-0.12
CC1CCc2c(sc(NC(=O)c3cccc(S(=O)(=O)Nc4ccccc4)c3)c2C#N)C1 (centres undefined)	-0.26
CCN(CC)c1ccc(NC(=O)CN2CCN(S(=O)(=O)c3cccc([N+](=O)[O-])c3)CC2)cc1	-0.78
Cc1nc2nc(SCC(=O)Nc3cccc(Cl)c3C)nn2c(C)c1Cc1ccccc1F	0.05
CCOC(=O)c1[nH]c2ccccc2c1NC(=O)Cc1ccc(OC)c(OC)c1	-0.07
CC1(C)NC(=O)N(CC(O)COc2ccc(Cl)cc2)C1=O (centres undefined)	-0.01
CCc1ccccc1NC(=O)c1cc(S(=O)(=O)NCc2ccccc2Cl)ccc1F	0.92
CS(=O)(=O)Nc1cccc(C2=NN(C(=O)c3cccs3)C(c3ccco3)C2)c1 (centres undefined)	-1.8
CC1CN(C(=O)c2cccc3c2-c2ccccc2C3=O)CC(C)O1 (centres undefined)	2.3
CC1(O)N(CCCCCCN2C(=O)OC3(CCCCC3)C2(C)O)C(=O)OC12CCCCC2 (centres undefined)	1.9
COc1cc(C2NC(=O)NC(C)=C2C(=O)OCC2CCCCC2)ccc1O (centres undefined)	-0.58
CC12CC(NC(=O)N1c1cccc(C(=O)NCc3ccccc3Cl)c1)c1cc(Cl)ccc1O2 (centres undefined)	-1.7
CCn1c(=S)[nH]c2sc3c(c2c1=O)CCCCC3	-0.69
Cc1ccc(C(=O)N2CC(=O)Nc3ccc(Br)cc3C2c2ccc(F)cc2)cc1 (centres undefined)	-1
COC(=O)C1=C(C)NC(=S)NC1c1cc2c(cc1Br)OCO2 (centres undefined)	-0.23
COc1cccc(C2C(C(=O)OC3CCCCCC3)=C(C)NC3=C2C(=O)CC(C)(C)C3)c1OC (centres undefined)	-0.34
CCOc1ccc(-n2c(SCc3ccc(Cl)cc3)nc3c(c2=O)SCC3)cc1	0.75
O=c1[nH]c(CSc2nc3ccccc3s2)nc2ccccc12	-0.27
CC1(C)C([N+](=O)[O-])C(c2ccccc2O)NC(c2ccccc2O)C1[N+](=O)[O-] (centres undefined)	0.44
Fc1ccc(OCCn2cc(C(=S)N3CCOCC3)c3ccccc32)cc1	0.9
CC1(C2(O)CCCCC2)NCCc2ccccc21 (centres undefined)	-0.33
COCc1cc(C)nc(SCc2ccccc2)c1C#N	-1.2
CC(=O)N/C(N)=N\c1nc2cc([N+](=O)[O-])ccc2o1	0.49
COC(=O)c1ccccc1NC(=O)c1cc(-c2ccc(C)s2)nc2ccccc12	-0.88
CC(=O)NC1C(=O)N=C(SCC(=O)Nc2cccc(Cl)c2)NC1=O (centres undefined)	0.06
Cc1ccc(C)c(NC(=O)CSc2cn(Cc3ccc(F)cc3)c3ccccc23)c1	0.76
COc1ccc(NC(=O)C2C3C=CC4(O3)C2C(=O)N(C2CCCC(C)C2C)C4C(=O)NC2CCCCC2)cc1 (centres undefined)	-0.78
OCCCNc1ncnc2ccc(Br)cc12	-1.1
O=C1c2ccc([N+](=O)[O-])cc2S(=O)(=O)N1Cc1ccccc1	-0.87
Cc1ccc(N2CC(C(=O)Nc3ccc(Br)cc3)CC2=O)cc1 (centres undefined)	1.1
COc1ccccc1C1C(C(=O)Nc2cccc(C(F)(F)F)c2)=C(C)NC2=C1C(=O)CC(C)(C)C2 (centres undefined)	0.54
O=C(NCc1ccc2c(c1)OCO2)C1CCN(c2nc3ccccc3o2)CC1	-0.33
CCn1c(=O)n(CC(=O)NCCCOC)c(=O)c2ccccc21	1.6
CC1CCN(S(=O)(=O)c2ccc3[nH]c(=O)cc(C(=O)NCc4ccc5c(c4)OCO5)c3c2)CC1	1.2
COc1ccccc1Cn1c(SCC(=O)Nc2ccc(N(C)C)cc2)nc2ccccc2c1=O	-0.37

4 entries from above in a different format.
O=C(NCc1ccc2c(c1)OCO2)C1CCN(c2nc3ccccc3o2)CC1
  Measles inh = -0.33
CCn1c(=O)n(CC(=O)NCCCOC)c(=O)c2ccccc21
  Measles inh = 1.6
CC1CCN(S(=O)(=O)c2ccc3[nH]c(=O)cc(C(=O)NCc4ccc5c(c4)OCO5)c3c2)CC1
  Measles inh = 1.2
COc1ccccc1Cn1c(SCC(=O)Nc2ccc(N(C)C)cc2)nc2ccccc2c1=O
  Measles inh = -0.37

Of the compounds above, eight contain a nitro group on carbon.
SMILES	Measles inh
O=C(Nc1nccs1)c1ccc([N+](=O)[O-])cc1Cl	0.35
CC1(C)CC(=O)C(C(c2cccc([N+](=O)[O-])c2)C2C(=O)CC(C)(C)CC2=O)C(=O)C1	-0.56
O=[N+]([O-])c1ccc(Cl)c(C2Nc3ccccc3S(=O)(=O)N2Cc2ccccc2)c1 (centres undefined)	1.9
COc1cc2c(c(OC)c1OC)C(c1ccccc1[N+](=O)[O-])CC(=O)N2 (centres undefined)	-0.53
CCN(CC)c1ccc(NC(=O)CN2CCN(S(=O)(=O)c3cccc([N+](=O)[O-])c3)CC2)cc1	-0.78
CC1(C)C([N+](=O)[O-])C(c2ccccc2O)NC(c2ccccc2O)C1[N+](=O)[O-] (centres undefined)	0.44
CC(=O)N/C(N)=N\c1nc2cc([N+](=O)[O-])ccc2o1	0.49
O=C1c2ccc([N+](=O)[O-])cc2S(=O)(=O)N1Cc1ccccc1	-0.87

Other results
SMILES	Measles inh
CCOC(=O)C1=C(C)Nc2nc(SCc3ccccc3C)nn2C1c1ccc(F)cc1 (centres undefined)	0.28
CCN(CC)c1ccc2cc(C(=O)NC(C)=O)c(=Nc3ccccc3OC)oc2c1	0.44
Cc1cc2cc(CNC(=O)Nc3ccccc3)ccc2[nH]1	0.04
CCOC(=O)CS(=O)(=O)c1ccc(C(=O)NCc2cccnc2)cc1[N+](=O)[O-]	1.6
CCOCCCNC(=O)CCN1C(=O)C(C)Oc2ccc(C)cc21 (centres undefined)	1.3
Cc1ccc(CCNC(=O)C2CCCN(c3nc4ccccc4o3)C2)cc1 (centres undefined)	-0.62
Cc1cccc2oc(-c3cc(N=Cc4cc5c(cc4Br)OCO5)ccc3O)nc12	0.92
COc1ccc(NC(=O)CCNS(=O)(=O)c2cccc3nsnc23)c(OC)c1	-0.35
CN1C(=O)N(C)C2NC(=S)NNC21 (centres undefined)	-0.68
CC(C)CCN1C(=O)C2C(C(=O)Nc3ccc(Cl)cc3)C3C=CC2(O3)C1C(=O)NC1CCCC(C)C1C (centres undefined)	-0.76
c1ccc(Nc2c(-c3c[nH]c4ccccc34)nc3ccccn23)cc1	0.86
CCOc1ccc(N2C(=O)c3ccccc3NC2c2ccccc2Cl)cc1 (centres undefined)	-0.85
CCc1ccc(C2C(C(=O)OCCOC)=C(C)NC3=C2C(=O)CC(c2ccccc2)C3)cc1 (centres undefined)	-1
CCC=Nc1c(C)n(C)n(-c2ccccc2)c1=O	-0.12
O=C(CSc1nc2ccccc2c(=O)n1CC1COc2ccccc2O1)c1ccc(F)cc1 (centres undefined)	0.89
Cc1ccc(C23CC4CC(CC(CN=Cc5ccc([N+](=O)[O-])cc5)(C4)C2)C3)cc1	1.4

Some values from the entries so far:
`CCN(CC)c1ccc2cc(C(=O)NC(C)=O)c(=Nc3ccccc3OC)oc2c1` in Measles inh = 0.44
`CCOC(=O)C1=C(C)Nc2nc(SCc3ccccc3C)nn2C1c1ccc(F)cc1` (centres undefined) in Measles inh = 0.28
`c1ccc(Nc2c(-c3c[nH]c4ccccc34)nc3ccccn23)cc1` in Measles inh = 0.86
